RecA splice inh: blocks M. tuberculosis RecA intein splicing; cell-free RecA intein splicing, fluorescence; inhibition, %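 (about 9 µM by stock and volumes)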; hit rate 0.75% among 290,000; AID 2221; in the data active = inhibition above about 30%; inconclusive = no clear call, values can overlap the other calls;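 also: 0% = vehicle wells and 100% = reference inhibitor control wells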
Target sequence (P9WHJ3 whole entry, looked up, canonical isoform): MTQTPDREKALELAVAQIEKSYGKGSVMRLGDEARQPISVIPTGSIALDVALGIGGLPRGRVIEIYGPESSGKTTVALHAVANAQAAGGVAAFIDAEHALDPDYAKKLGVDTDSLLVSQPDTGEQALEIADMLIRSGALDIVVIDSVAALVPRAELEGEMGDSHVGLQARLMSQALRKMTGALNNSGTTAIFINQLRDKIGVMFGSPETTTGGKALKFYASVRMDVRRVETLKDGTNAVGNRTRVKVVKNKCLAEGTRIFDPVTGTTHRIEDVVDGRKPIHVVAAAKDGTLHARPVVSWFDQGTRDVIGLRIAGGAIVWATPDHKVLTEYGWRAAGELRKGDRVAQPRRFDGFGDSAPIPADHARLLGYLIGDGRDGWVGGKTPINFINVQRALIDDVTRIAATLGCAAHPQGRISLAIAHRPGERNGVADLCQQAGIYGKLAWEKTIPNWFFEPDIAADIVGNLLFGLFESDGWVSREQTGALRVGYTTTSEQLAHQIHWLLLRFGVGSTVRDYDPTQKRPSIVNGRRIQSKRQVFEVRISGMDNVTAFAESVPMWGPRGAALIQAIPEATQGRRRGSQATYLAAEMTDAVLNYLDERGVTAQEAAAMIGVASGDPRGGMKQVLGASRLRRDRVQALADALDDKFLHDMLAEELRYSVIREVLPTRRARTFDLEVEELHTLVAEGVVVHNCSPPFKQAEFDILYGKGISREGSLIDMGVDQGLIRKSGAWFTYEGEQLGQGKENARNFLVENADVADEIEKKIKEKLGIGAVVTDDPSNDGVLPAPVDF
YopH inh: inhibitors of Yersinia enterocolitica YopH tyrosine phosphatase; fluorescence Ex485/Em525; inhibition, %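 (about 10 µM by stock and volumes)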; hit rate 0.16% among 140,000;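 active = inhibition of 50% or more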;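 also: controls were vehicle for no effect and minimum signal wells for full effect; inactives centre near -20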
Arbovirus inh: arbovirus infection inhibition | arbovirus infection cell-based antiviral screen | inhibition, % at 10 µM | hit rate 0.37% among 200,000;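 active = inhibition from about 30%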;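 also: bluetongue infection of BSR cells; cell survival read as ATP light after 72 h; 0% = infected wells without compound and 100% = uninfected wells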
Mtb betalactam: beta-lactam sensitization of Mtb H37Rv. M. tuberculosis H37Rv growth with meropenem, percent inhibition; hits of this screen are not shown here. inhibition, % at 25 µM. hit rate 0.27% among 330,000;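 active = about 74% or more and at least 40 points above the plate without the antibiotic, then above 30% in a dose series; inconclusive = first-round hits that could not be retested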;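 also: growth measured after seven days incubation then overnight dye step; 0% = bacteria only wells and 100% = bacteria with antibiotic; twin plates without the antibiotic show which effects depend on it; some results filed as inactive read as strong as hits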
Mtb growth: M. tuberculosis H37Rv growth inhibitors, H37Rv strain (AID 1626). M. tuberculosis H37Rv growth inhibition; higher % means a stronger effect. one-dose inhibition, % at 10 µM; IC50 in µM for titrated hits. hit rate 0.95% among 220,000;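 active = confirmed in a dose series; inconclusive = inhibition above 80% but not taken into the dose series; inactive = below 80% or under 30% at every dose of the series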;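 also: bacteria incubated seven days before Alamar blue readout; 0% = bacteria only wells and 100% = bacteria with antibiotic wells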
Arbovirus inh repeat: second read-out of Arbovirus inh, no call of its own (marks repeat the call); inhibition, %; measured here: 10K subset replicate screen; many hits read low in the repeat;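 first of two repeat runs on a subset; 0% = infected and 100% = uninfected wells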
Active calls of the source: *; ? = inconclusive; / = no result given. An excerpt; the hit share may differ from the screen's.

SMILES	RecA splice inh	YopH inh	Arbovirus inh	Mtb betalactam	Mtb growth	others
C/C(=N/NS(=O)(=O)c1ccc(Cl)cc1)c1cccc(O)c1	/	-35.7	3.0	-3.1	8.9%
COc1ccc(NS(=O)(=O)c2ccc(C)c(C(=O)N3CCCCCCC3)c2)cc1	4.1	/	/	-9.7	/
COc1cccc(C(=O)C2CCCN(Cc3ccccn3)C2)c1 (configuration not stated)	4.7	/	6.9	/	3.9%
Cc1oc(C(C)(C)C)cc1C(=O)NCC(=O)NCC(=O)O	5.7	-27.8	3.0	-5.3	2.2%
O=C(NC1CCCC1)C(c1ccncc1)N(Cc1ccccc1F)C(=O)c1csnn1 (configuration not stated)	-8.4	/	/	7.6	/
Cc1onc(-c2ccccc2Cl)c1C(=O)N1CCCc2ccccc21	-2.1	-7.0	-14.6	1.0	-7.1%
O=C(c1nnc(-c2ccc(Cl)cc2)o1)C1CCCC1	-10.3	/	8.3	2.9	0.6%
CCOC(=O)c1ccc(NC(=O)CSC2=NN3CCCC(=O)N=C3S2)cc1	-3.0	/	/	87.2	/
CN(C)C(=O)CN1CCN(c2nc3nonc3nc2N2CCCCC2)CC1	-1.2	/	0.0	-4.8	1.7%
CC(=O)Nc1ccc(S(=O)(=O)N2CCN(C(=O)c3ncoc3-c3cccc(F)c3)CC2)cc1	1.7	/	/	0.2	/
Cc1cc(/C=N\NC(=O)CC(=O)NC2CCCCC2)c(C)n1-c1ccc(Cl)c(Cl)c1	-1.1	-22.3	-3.0	7.8	3.2%
Cc1cccc(CNc2ccc(C(CC(N)=O)NC(=O)c3cccc(Br)c3)cc2[N+](=O)[O-])c1 (configuration not stated)	-0.1	/	/	-1.2	-1.4%
Cc1ccc(C(=O)O)cc1N=Cc1cc(Br)cc(Br)c1O	-0.8	-23.7	-2.4	1.4	3.4%
C[C@H](NC(=O)[C@@H]1Cc2ccccc2CN1C(=O)OC(C)(C)C)C(=O)NCC1CCCO1 (some centres not stated)	-0.8	/	/	1.6	/
O=C(O)CCSc1nnc(SCC(=O)NCC(F)(F)F)s1	-1.1	-40.1	-2.0	9.8	6.0%
Cc1cc(S(=O)(=O)Nc2cccnc2)c(Cl)cc1Cl	-0.5	/	/	-15.4	/
Cn1nc(C(=O)Nc2ccc(S(=O)(=O)Nc3ncccn3)cc2)ccc1=O	3.1	/	/	2.2	-8.8%
CCn1c(=S)[nH]c2cc(Cl)ccc21	-3.8	/	/	11.6	1.0%
C/C(=N\NC(=O)Cn1nc(C)c(Br)c1C)c1cccs1	-1.2	-29.0	-5.4	2.4	3.4%
O=C(Nc1cccc2ccccc12)C1CCN(C(=O)NCc2ccccc2)CC1	4.4	-2.7	-16.6	-2.2	8.8%
Cc1ccc(C(=O)Nc2ccc(S(=O)(=O)N3CCCC3)cc2)o1	0.1	/	/	-1.1	/
C/C(=N\N1CCN(Cc2ccccc2)CC1)c1ccco1	-1.5	/	1.4	1.7	-0.9%
CCc1nnc(NC(=O)CCC(=O)NCc2ccc(OC)cc2)s1	-1.4	/	/	-1.4	-3.4%
O=C(c1ccco1)N1CCN=C1SCc1ccccc1F	2.1	/	13.2	-3.9	-4.7%
CCOC(=O)C1=C(O)/C(=C/c2ccc(OCC(=O)O)c(OCC)c2)SC1=Nc1ccc(C)cc1	1.9	/	17.6	72.4	13.5%

Among those listed so far, 2 contain a tert-butyl group:
SMILES	RecA splice inh	YopH inh	Arbovirus inh	Mtb betalactam	Mtb growth	others
Cc1oc(C(C)(C)C)cc1C(=O)NCC(=O)NCC(=O)O	5.7	-27.8	3.0	-5.3	2.2%
C[C@H](NC(=O)[C@@H]1Cc2ccccc2CN1C(=O)OC(C)(C)C)C(=O)NCC1CCCO1 (some centres not stated)	-0.8	/	/	1.6	/

The list goes on.
SMILES	RecA splice inh	YopH inh	Arbovirus inh	Mtb betalactam	Mtb growth	others
Cc1cccc(-n2ccnc2SCC(=O)Nc2nccs2)c1	1.2	-19.0	2.1	22.2	1.6%
C/C(=N\NC(=O)c1ccn[nH]1)c1cn(C)nc1C	-1.7	-6.1	-8.7	-2.8	-3.7%
CSc1nc2ccc(NS(=O)(=O)c3cccc(Cl)c3Cl)cc2s1	14.9	-21.5	10.0	55.4	>100µM*
O=C(CC1(O)C(=O)Nc2ccccc21)c1ccccc1 (configuration not stated)	0.8	/	7.2	-5.5	2.8%	Arbovirus inh repeat=-1.8
O=C(O)CSc1nnc(-c2ccccc2O)n1Cc1ccccc1	-1.8	-38.8	3.5	-5.2	5.9%
COc1ccc(-c2noc(CCC(=O)NC3CCN(Cc4ccccc4)CC3)n2)cc1	1.2	-19.5	1.3	-8.7	-6.7%
CSc1ccc(CN(C)C(=O)C(Cc2ccccc2)NC(=O)c2ccccc2)cc1 (configuration not stated)	5.7	/	/	-3.4	/
N#Cc1c(Cl)cccc1N1CCCC1	/	/	/	-7.9	-7.2%
O=C(Nc1ccccc1-c1ccccc1)c1cnccn1	0.1	-29.7	-14.7	22.2	-2.6%
O=C(c1cccs1)N1CCN(Cc2ccccn2)CC1	0.3	/	3.0	1.5	-7.8%
COc1cccc(NC(=O)CSc2nnnn2C(C)C)c1	/	2.1	10.5	-13.2	/
CCOP(=O)(OCC)c1cccc(OP(=O)(c2cccc([N+](=O)[O-])c2)c2cccc([N+](=O)[O-])c2)c1	-1.9	/	/	0.0	-8.7%
Cn1c(=O)[nH]c(=O)c2c1nc(Br)n2C/C=N/NC(=O)c1ccccc1	/	/	/	1.2	-6.4%
CCCS(=O)(=O)N1CCCC(C(=O)NCc2ccc(C)cc2)C1 (configuration not stated)	-0.1	-40.7	0.0	-12.1	7.3%
O=C(Nc1ccnc(-c2cccnc2)n1)c1ccc(Cl)cc1	2.0	-23.4	4.3	0.3	-1.6%
Cc1nc(-c2ccc(Cl)cc2)sc1C1(C)CC(c2ccc([N+](=O)[O-])cc2)=NO1 (configuration not stated)	-3.4	/	/	-9.0	-4.8%
COc1ccc(NC(=O)C2CCN(S(=O)(=O)c3ccc(N4CCCC4=O)cc3)CC2)cc1OC	-2.6	/	/	-6.6	/
COc1ccccc1C1C2C(=O)N(c3ccccc3)C(=O)C2ON1c1ccccc1 (configuration not stated)	2.4	-40.1	10.5	6.9	-8.6%
Cn1c(O)c(C=NCCCN2CCCC2=O)c(=O)n(C)c1=O	0.7	-28.7	4.0	2.5	4.6%
CN1CCN(CC(O)COCCOc2ccc(Br)cc2)CC1 (configuration not stated)	0.9	-22.5	-8.1	-0.4	-5.6%
COCCn1c(N)c(C#N)c2nc3ccccc3nc21	-225.2	13.8	-7.9	-7.4	5.3%
CC(C)(C)NCCCCOc1ccc(F)cc1	-0.5	-44.1	2.3	1.9	-5.1%	Arbovirus inh repeat=-0.8
CC1CN(Cc2nnc(-c3ccccc3)o2)CC(C)O1 (configuration not stated)	-0.4	/	3.8	-4.8	-4.5%
c1cnn(-c2cncc(-n3cccn3)n2)c1	-1.2	/	0.5	-7.1	-0.6%
NC(=NCc1ccc2c(c1)OCO2)NC(=O)c1ccccc1	1.8	/	4.5	/	1.6%
Next section:
SMILES	RecA splice inh	YopH inh	Arbovirus inh	Mtb betalactam	Mtb growth	others
COc1cc(C2C(C(C)=O)=C(O)C(=O)N2CCc2c[nH]c3ccccc23)ccc1O (configuration not stated)	-5.4	-40.1	0.3	-0.1	-3.3%
CCOC(=O)C1CCCN(C(=O)c2cccc(S(=O)(=O)N3CC(C)OC(C)C3)c2)C1 (configuration not stated)	-6.1	/	/	-6.6	-8.9%
Cc1cc(C)n(/N=C/c2c[nH]c3ccccc23)c(=O)c1	-1.0	7.9	2.9	-18.4	0.0%	Arbovirus inh repeat=-2.6
Cc1noc(C)c1S(=O)(=O)Nc1ccc(C(=O)NC2CCCCC2C)cc1 (configuration not stated)	-1.8	0.5	-2.0	6.0	7.1%
COc1ccc(OC)c(NC(=O)Cn2cc(C#N)c3ccccc32)c1	3.0	-8.2	5.7	-0.2	3.4%
CN(C)S(=O)(=O)c1ccc2c(c1)nc1n2CCC1	-7.8	-19.7	1.7	9.3	0.5%
Cc1ccccc1C(=O)N(Cc1cccs1)C1CCS(=O)(=O)C1 (configuration not stated)	-0.6	/	/	-2.7	/
CNc1ccc(C2(O)C(=O)c3ccccc3C2=O)cc1	-3.8	-17.5	2.6	8.1	1.0%
O=C(Nc1ccccc1F)c1ccc(CSc2ccccc2)o1	10.0	-15.6	0.5	3.5	1.4%
COn1c(SCc2ccc(Cl)cc2)nc2ccccc2c1=O	23.5	-6.4	15.4	59.5	-0.2%
CCC(=O)N1CCc2cc(S(=O)(=O)NC(C(=O)N3CCN(c4ccc(F)cc4)CC3)C(C)C)ccc21 (configuration not stated)	-1.8	/	/	1.3	/
Cc1ccc(S(=O)(=O)N2CCN(C(=O)N3CCOCC3)C2C)cc1 (configuration not stated)	-0.5	-30.4	4.0	-22.4	-9.3%
CCCCN(CC)C(=O)c1ccc(Cl)cc1	-2.3	/	1.6	-12.7	5.0%
Nc1nc(Cl)cc(Nc2ccccc2Cl)n1	2.1	/	/	1.0	0.2%
COCCCNc1ncnc2ccc(C)cc12	3.6	-3.5	11.9	-8.1	0.7%
CC1CCCC(C)N1S(=O)(=O)c1ccc(S(=O)(=O)NCc2ccccc2)cc1 (configuration not stated)	1.8	29.7	-8.3	-3.2	2.9%
Cn1cc(C(O)CN2CCCCC2)c2ccccc21 (configuration not stated)	-0.3	/	/	-7.2	/
O=Cc1cn(CC(=O)Nc2ccc(F)cc2)c2ccccc12	-2.3	/	8.5	-8.7	2.8%
Cc1ccc(NC(=O)CN2C(=O)NC3(CCc4ccccc43)C2=O)cc1 (configuration not stated)	-3.3	/	-2.2	-10.6	-6.0%
C=CCn1c(SCC(=O)NC2CCCCC2)nnc1-c1ccc(OC)cc1	-2.7	-21.8	2.0	2.8	-2.5%
CCOC(=O)c1cnc2cc(C)nn2c1-c1ccccc1	0.3	0.7	4.9	4.0	-11.9%
COc1cccc(C(=O)NCCSCc2c(F)cccc2Cl)c1	0.6	/	/	-1.9	/
CCCCn1c(O)c(C(C)=NCc2cccnc2)c(=O)[nH]c1=O	-2.8	/	/	-2.6	-0.5%
COc1ccc(-c2oc3ccc(-c4cc(OC)c(OC)c(OC)c4)cc3c2C(=O)c2ccc(OC)nc2)cc1	1.5	/	/	-4.3	/
CCCc1ccc(-c2cc(C(=O)N3CCN(c4ccccn4)CC3)c3ccccc3n2)cc1	10.5	/	/	34.8	/
(cont.)
SMILES	RecA splice inh	YopH inh	Arbovirus inh	Mtb betalactam	Mtb growth	others
CCOCCCNC(=O)c1cc(Nc2ccc(OC)cc2OC)nc2ccccc12	-2.1	/	/	-4.1	/
CC(C)N(CCc1ccncc1)C(=O)Nc1ccc(F)cc1	-1.9	-5.7	6.4	-10.9	-4.8%	Arbovirus inh repeat=7.3
COc1ccccc1NC(=O)CSCc1ccc([N+](=O)[O-])cc1	2.4	/	-4.3	7.4	0.7%
CN(C)CCNc1ncnc2c1sc1nc(N3CCOCC3)c3c(c12)CC(C)(C)SC3	-0.6	-30.1	-34.3	9.5	1.3%
COc1ccccc1NC(=O)N1C2CCCC1CC(NC(=O)c1ccccc1)C2 (configuration not stated)	-0.7	/	-0.1	-1.8	-4.2%
CCN(CC)CCCN(Cc1cc2cc3c(cc2[nH]c1=O)OCO3)C(=O)Nc1ccccc1OC	7.6	-48.9	7.8	0.1	5.3%
Cc1ccc(S(=O)(=O)N2CCOCC2)cc1NC(=O)COc1ccc2c(C)cc(=O)oc2c1	-3.8	/	/	-9.4	/
Fc1ccc(CSc2nncn2NCc2ccc3c(c2)OCO3)cc1	-1.1	-9.4	1.8	4.0	/
Cc1cccc(COCC(Cc2ccccc2)N2CCN(C(=O)c3ccc(C(F)(F)F)cc3)CCC2=O)c1 (configuration not stated)	11.0	-20.5	-14.9	-8.9	8.2%
O=C(Nc1ccncc1)c1ccc(-c2ccccc2)cc1	-1.3	/	-5.2	5.4	6.0%
COc1ccc(/C=N/n2cc(-c3ccc(OC)cc3)nc2N)cc1	-0.2	20.2	-8.5	98.4	?
N#Cc1cc2c(nc1S(=O)(=O)Cc1ccccc1)CCCC2	0.1	/	4.6	-6.7	3.9%
O=C(Nc1nc2c(s1)CCCC2)c1ccc2ncsc2c1	-0.3	-39.8	23.1	2.0	/	Arbovirus inh repeat=20.8
CCOc1nc2cnccc2n(CC(=O)Nc2cccc(C)c2)c1=O	-0.7	/	/	-2.9	/

Structures shown so far containing a thiophene ring, fused or not, in the order listed:
SMILES	RecA splice inh	YopH inh	Arbovirus inh	Mtb betalactam	Mtb growth	others
C/C(=N\NC(=O)Cn1nc(C)c(Br)c1C)c1cccs1	-1.2	-29.0	-5.4	2.4	3.4%
O=C(c1cccs1)N1CCN(Cc2ccccn2)CC1	0.3	/	3.0	1.5	-7.8%
Cc1ccccc1C(=O)N(Cc1cccs1)C1CCS(=O)(=O)C1 (configuration not stated)	-0.6	/	/	-2.7	/
CN(C)CCNc1ncnc2c1sc1nc(N3CCOCC3)c3c(c12)CC(C)(C)SC3	-0.6	-30.1	-34.3	9.5	1.3%

High-throughput results deposited in PubChem by several laboratories.
